Screens deposited in PubChem by several laboratories.
PKD1 inh = inhibitors of human PKD1 kinase, biochemical, fluorescence polarization; Serine/threonine-protein kinase D1 (Homo sapiens), Q15139; PKD1 kinase fluorescence polarization assay; inhibition, %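 (about 10 µM by stock and volumes)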; 0.056% of 200,000 active; AID 797, 2007;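 active = inhibition of 50% or more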;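 note: controls were vehicle for no effect and a reference inhibitor for full effect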
Target sequence (Q15139 whole entry, looked up): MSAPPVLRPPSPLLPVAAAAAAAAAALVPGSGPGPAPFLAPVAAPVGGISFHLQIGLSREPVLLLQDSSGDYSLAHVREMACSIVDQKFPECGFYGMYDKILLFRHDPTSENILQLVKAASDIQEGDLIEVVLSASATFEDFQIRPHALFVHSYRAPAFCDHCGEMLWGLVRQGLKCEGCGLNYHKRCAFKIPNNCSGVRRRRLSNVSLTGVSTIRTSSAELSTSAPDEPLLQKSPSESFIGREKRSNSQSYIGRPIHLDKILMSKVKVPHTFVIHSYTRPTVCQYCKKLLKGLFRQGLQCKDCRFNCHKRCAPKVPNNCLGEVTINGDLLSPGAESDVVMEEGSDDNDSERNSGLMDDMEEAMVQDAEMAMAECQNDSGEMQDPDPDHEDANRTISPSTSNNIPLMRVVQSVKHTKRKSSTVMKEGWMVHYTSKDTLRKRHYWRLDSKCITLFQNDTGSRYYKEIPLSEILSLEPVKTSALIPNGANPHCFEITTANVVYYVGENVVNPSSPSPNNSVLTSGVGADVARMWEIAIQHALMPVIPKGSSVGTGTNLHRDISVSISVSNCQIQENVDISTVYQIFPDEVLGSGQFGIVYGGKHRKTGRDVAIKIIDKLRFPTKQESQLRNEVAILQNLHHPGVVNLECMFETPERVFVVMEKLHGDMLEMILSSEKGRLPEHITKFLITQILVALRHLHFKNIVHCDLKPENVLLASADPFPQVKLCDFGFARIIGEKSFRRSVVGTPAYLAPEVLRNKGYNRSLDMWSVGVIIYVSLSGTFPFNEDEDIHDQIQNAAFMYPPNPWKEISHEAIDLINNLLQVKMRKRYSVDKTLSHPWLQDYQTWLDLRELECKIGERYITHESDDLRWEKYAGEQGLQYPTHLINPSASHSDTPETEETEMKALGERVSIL
RGS16-Gao = modulators of RGS16 binding to Galphao, primary screen, biochemical, human proteins, multiplexed bead flow cytometry; bead-based flow cytometry RGS16-Galphao binding, fluorescence; actives lie on both sides; Regulator of G-protein signaling 16 (Homo sapiens) + Guanine nucleotide-binding protein …; binding response (% of control), % at 10 µM; 0.38% of 220,000 active;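 active = below 25% or above 175%, edge rows of some plates excepted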;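 note: Galphao activated by GDP with aluminum fluoride before binding; 100% = wells without compound and 0% = beads without RGS; some results beyond the cut were filed as inactive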
GALR2 agonist = GALR2 receptor agonists, primary screen, cell-based; AID 803, 2007; activation, %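 (tested at 5 µM)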; 0.48% of 140,000 active; GALR2-expressing cells, agonist activation read-out; Galanin receptor type 2 (Homo sapiens), O43603;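 active = above mean plus 3 SD of all compounds, about 5% in these data, not always enough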;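 note: 0% = vehicle buffer wells and 100% = reference agonist at full effect; tested in CHO reporter cells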
Insulin prom inh = inhibitors of insulin promoter-driven GFP, primary screen, imaging, TRM-6 cells (human fetal islet line), eGFP reporter, cell count. AID 1273, 2008. 0.9% of 130,000 active. inhibition, % at 2 µM. reporter expression induced with tamoxifen;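 active = inhibition above the mean plus 3 SD, with well images judged a real hit on visual review, cut at about 60% in these data, passing the limit was not always enough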
HSV augment = enhancers of HSV replication in host cells, fold increase, host cell viability; HSV replication augmentation in cells; maximum fold increase; 0.005% of 220,000 active;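 active = peak rise of 1.5-fold or more in the series; tested in PC3 cells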;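 note: first round at 10 µM; read as green reporter fluorescence; hits show the peak of a series up to 25 µM; 1 = signal of infected wells without compound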
Insulin prom inh cell count = second read-out of Insulin prom inh, no call of its own (marks repeat the call); normalized cell count, %; measured here: cell count, toxicity; reference of the scale not given here;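 cells exposed to compound for 48 h; stained nuclei by imaging scaled within each plate; lower means fewer cells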
HSV augment primary fold = also measured in HSV augment; calls as there; fold increase; compound at 10 µM; measured here: primary screen fold increase 10 uM; tested in PC3 cells;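 GFP signal in the first replicate; 1 = infected wells without compound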
Starred values were filed as active, the others as inactive; i = inactive; / = no result given.

smiles	PKD1 inh	RGS16-Gao	GALR2 agonist	Insulin prom inh	Insulin prom inh cell count	HSV augment	HSV augment primary fold
COC(=O)c1sc(N2C(=O)C(O)=C(C(=O)c3ccc(C)o3)C2c2ccc(F)cc2)nc1C (stereo not drawn)	-3.9	22.6	0.6	-33.3	46.3	i	0.97
CC(=O)c1cccc(NC(=O)N2CCCC2C(=O)NCCC(C)C)c1 (stereo not drawn)	-1.0	92.5	-2.2	/	/	i	0.973
CC1(C)NC(=O)N(CCOc2ccc([N+](=O)[O-])cc2)C1=O	1.9	89.9	/	-20.9	99.0	i	0.94
COc1ccc(/C=C/C(=O)N(C)C2CCCCC2)cc1Br	4.8	99.1	/	-26.3	68.6	i	1.02
CCN(CC)C(=O)c1ccccc1NC(=O)c1cccc(S(=O)(=O)N(CC)CC)c1	-12.6	104.0	-2.2	-44.4	93.1	i	0.99
C=CCNC(=O)C12CCC(C)(C(=O)[C@H]1Br)C2(C)C (stereo partly drawn)	/	96.2	/	/	/	i	0.81
COC(=O)C1=C(C)NC(=O)/C1=C\c1cc(C)n(-c2cc(C)cc(C)c2)c1C	1.2	95.2	0.1	/	/	i	1.25
Nc1nonc1-n1nnc(C(=O)N/N=C/c2ccccc2Cl)c1CSc1ccccc1	/	98.5	/	/	/	i	0.92
O=C(CCS(=O)(=O)c1ccccc1)Nc1ccc2c(c1)C(=O)NC2=O	-4.4	100.9	/	/	/	i	1.09
CN(C)S(=O)(=O)c1ccc(NC(=O)c2cc(-c3cccs3)nc3ccccc23)cc1	4.8	105.5	-1.9	-15.4	101.2	i	0.74
COc1ccc(NC(=O)CC2C(=O)N(C)C(=S)N2Cc2ccco2)cc1 (stereo not drawn)	-8.1	94.2	-0.9	-70.0	95.4	i	1
O=C(c1ccc(Cl)nc1)N1CCN(C/C=C/c2ccccc2)CC1	-2.1	94.2	/	/	/	i	1
C/C(=C\c1ccccc1)C(=O)Nc1nccs1	-4.6	97.1	/	/	/	i	1.04
CCOc1ccc(-n2cc(C(=O)c3cc(Cl)ccc3O)cc(C#N)c2=O)cc1	12.7	103.5	/	-5.0	90.7	i	1.02
CC[C@H](C)[C@@H]1NC(=O)c2cc([N+](=O)[O-])cc(F)c2NCCCC[C@@H](C(N)=O)NC(=O)[C@H](CCCCN)NC1=O	-4.4	99.3	-1.9	-27.3	72.2	i	0.87
C=C(C)Cn1c(SCC(=O)O)nnc1-c1ccc(C(C)(C)C)cc1	7.3	105.3	-0.3	-15.8	58.6	i	0.91
CC(CN1CCOCC1)OC(=O)c1ccccc1Br (stereo not drawn)	-8.0	99.6	-2.5	/	/	i	1
CCCOc1ccc(CCc2n[nH]c(=S)n2Cc2ccccc2)cc1	-7.1	100.8	-2.1	/	/	i	1.17
COC(=O)c1cccc(NC(=S)Nc2cccc(Cl)c2C)c1	1.6	97.8	-1.2	-37.5	100.9	i	0.99
CCOC(=O)c1sc(NC(=O)C(C)Sc2nc(N)cc(=O)[nH]2)nc1C (stereo not drawn)	-0.2	105.5	/	-16.7	136.2	i	0.93
CN(C)S(=O)(=O)c1cc(NC(=O)COC(=O)Cc2ccc(Cl)cc2Cl)ccc1Cl	0.8	36.5	-2.0	53.9	112.8	/	/
Nc1nc(SCC(=O)N2CCCCCC2)[nH]c(=O)c1NC(=O)c1ccco1	0.3	110.4	/	/	/	i	0.93
COc1cc2cc(C(c3nnnn3C3CCCC3)N3CCCCC3)c(=O)[nH]c2cc1OC (stereo not drawn)	-2.8	103.2	-1.3	/	/	i	0.99
N#C/C(=C\c1ccc([N+](=O)[O-])cc1)c1ccccn1	1.3	92.3	/	57.1	108.0	i	0.84
CC(=O)Nc1ccc(NC(=O)CSc2nc3nc(-c4cccs4)cc(C(F)(F)F)c3c(=O)[nH]2)cc1	/	103.1	/	/	/	i	0.87
Cn1c(C(O)c2ccccc2F)nc(Cl)c1Cl (stereo not drawn)	2.0	91.5	-2.5	-30.3	82.3	i	0.95
Cc1nn(-c2ccc(F)cc2F)c(=O)c2noc(C)c12	/	99.9	/	/	/	i	0.83
CCOC(=O)c1cnn(-c2ccccc2)c1NC(=O)CN1CCOCC1	/	102.3	/	/	/	i	1
Cc1c(O)ccc2c(CN(C)Cc3ccccc3)cc(=O)oc12	/	95.1	/	/	/	i	0.88
O=C1CCCN1CCCNC(=S)Nc1ccc(F)c(Cl)c1	-5.8	98.9	/	/	/	i	0.9
Oc1ccccc1N1CCN(C(=S)NCc2ccccc2)CC1	5.4	102.1	/	/	/	i	1
CC1CCCCC1NC(=O)CN1C(=O)NC(C)(c2ccc(OC(F)F)cc2)C1=O (stereo not drawn)	1.0	103.1	-0.2	-92.3	108.8	i	0.93
N#Cc1c(NC(=O)CCCN2C(=O)c3ccccc3C2=O)oc(-c2ccccc2)c1-c1ccccc1	-6.4	103.8	-1.0	-18.8	108.6	i	0.85
O=C(Cc1ccccc1)Nc1nc2ccccc2[nH]1	-2.9	101.2	-1.2	9.7	95.5	i	1.21
O=C(/C=C/c1ccccc1)Nc1ccc(Br)cn1	-0.1	99.3	/	/	/	i	0.68
O=C(N/N=C/c1ccc(OC(F)F)cc1)c1ccc(CSc2nc3ccccc3[nH]2)cc1	-5.9	104.5	-0.7	/	/	i	0.88
COc1cccc(/C=N/n2c(N)c(S(=O)(=O)c3cccs3)c3nc4ccccc4nc32)c1	-1.5	99.8	0.1	0.0	91.7	i	1.29
O=C(COC(=O)c1ccccc1-c1ccccc1[N+](=O)[O-])c1ccccc1	-3.1	101.2	-2.1	-43.8	94.2	i	0.75
COc1cc2[nH]c(=S)nc(NCCc3ccc(S(N)(=O)=O)cc3)c2cc1OC	1.6	103.3	/	/	/	i	0.95
COCCCN=CC1=C(O)CC(C)(C)CC1=O	-1.6	97.7	-0.6	-72.7	129.0	i	0.83
Cc1ccc(S(=O)(=O)NC(CC(N)=O)C(=O)O)cc1 (stereo not drawn)	2.5	102.0	-1.8	35.7	136.3	i	0.9
CCCOc1ccc(C(=O)C(CN2CCOCC2)c2ccccc2)cc1 (stereo not drawn)	-6.6	105.9	-0.2	46.7	190.5	i	0.31
Cc1nn(-c2ccc(Cl)cc2Cl)c(C)c1C(=O)O	-4.2	92.3	/	/	/	i	0.96
CCOC(=O)c1c(NC(=O)CN2C(=O)CN(C)C2=O)sc(C)c1C	1.5	96.7	/	-33.3	73.8	i	1.01
CS(=O)(=O)Nc1ccc(N2CCN(c3ccc(C(F)(F)F)cn3)CC2)nc1	/	103.2	/	/	/	i	0.94
CCOC(=O)c1c(CC(C)C)csc1NC(C)=O	2.9	103.6	-1.1	50.0	147.4	i	0.81
CCC(=O)Nc1sc(C(=O)Nc2ccccc2F)c(C)c1C(=O)OC	-4.3	105.8	/	/	/	i	0.94
C=CCn1c(SCc2ccc(Cl)cc2)nc2cc(C(=O)N3CCC(C(N)=O)CC3)ccc2c1=O	10.6	107.0	1.3	-26.5	97.3	i	0.98
CCOc1ccccc1NC(=O)C1C2C=CC(O2)C1C(=O)O (stereo not drawn)	-6.0	98.8	-1.2	-14.3	98.1	i	0.89
COc1ccccc1C1(CCNC(C)c2cccs2)CCOC(C(C)C)C1 (stereo not drawn)	/	113.4	/	/	/	i	0.81

The list continues:
smiles	PKD1 inh	RGS16-Gao	GALR2 agonist	Insulin prom inh	Insulin prom inh cell count	HSV augment	HSV augment primary fold
O=C(O)C1Cc2ccccc2CN1C(=O)COc1ccc(Cl)cc1 (stereo not drawn)	-0.7	101.5	/	46.7	86.1	i	0.94
CCCCCc1cc(=O)oc2c(C(CCN3CCCC(C)C3)c3ccc(OC)cc3)c(OC)cc(OC)c12 (stereo not drawn)	/	107.0	/	/	/	i	0.57
O=C(NCc1cccnc1)C(=O)NCC1OCCN1S(=O)(=O)c1ccc(F)cc1 (stereo not drawn)	0.8	61.4	-1.6	12.2	72.5	i	0.92
Cc1ccc(N(C(=O)Cn2nnc3ccccc32)C(C(=O)NCc2ccco2)c2ccc(C)o2)cc1 (stereo not drawn)	-2.3	100.0	-1.1	7.7	120.0	i	0.98
CCCc1nnc(SCC(=O)Nc2ccc(OC)cc2)n1N	-2.8	100.2	-0.3	27.1	77.7	i	0.96
O=C(c1ccncc1)N1CCN(c2ccc(F)cc2)CC1	1.5	104.5	-2.1	/	/	i	0.95
CC(C)(C)c1ccc(/C=C(\C#N)C(=O)NCCN2CCOCC2)cc1	-5.2	96.3	/	/	/	i	0.94
CC1CCc2nn(CC(=O)NCCN3CCCCC3C)cc2C1 (stereo not drawn)	-2.0	99.5	-2.0	/	/	i	1.36
O=C(N/N=C/c1ccncc1)c1ccc2c(c1)OCO2	0.0	98.7	/	31.2	131.6	i	0.87
c1ccc(-c2csc3ncn4nnnc4c23)cc1	-5.3	102.9	-1.3	-9.5	100.5	i	0.95
CCN1CCN(c2cc3c(nn2)Oc2ccccc2N3C)CC1	-2.2	111.2	-3.4	11.1	94.1	i	0.66
O=C(CCN1C(=O)c2ccccc2C1=O)N1CCN(C2c3ccccc3-c3ccccc32)CC1	-4.3	101.5	-1.2	16.7	110.3	i	0.8
CSc1ccc(-c2nc(CSCC(=O)N3CCOCC3)c(C)o2)cc1	4.7	100.2	-0.7	/	/	i	0.78
CCOC(=O)Nc1ccc(S(=O)(=O)N2CCC(C)CC2)cc1	-2.1	100.2	/	-30.2	126.4	i	1.01
O=Cc1ccc2noc(-c3ccc(F)cc3)c2c1	8.2	101.7	1.5	-12.5	58.1	i	1.13
Brc1ccc2c(c1)CNc1c(ncnc1N1CCOCC1)O2	-7.4	106.2	-1.2	/	/	i	1.02
CCSc1nc(-c2ccc(OC)cc2)n(-c2nc3ccccc3s2)n1	-2.4	104.7	-1.2	-188.9	84.3	i	1.04
Cc1cccc(-n2ncc3c(NC4CCCCC4)ncnc32)c1	3.5	144.2	-0.6	/	/	i	0.82
Cc1cnc(C(=O)Nc2nnc(C(C)C)s2)cn1	-0.7	104.4	-1.4	-1.3	104.1	i	0.96
O=C(CN1CCCCC1)N=Nc1c(O)[nH]c2ccccc12	3.4	94.9	/	/	/	i	1.04

Reformatted: entries from further up.
SMILES: CCOC(=O)Nc1ccc(S(=O)(=O)N2CCC(C)CC2)cc1
  PKD1 inh: -2.1 | RGS16-Gao: 100.2 | GALR2 agonist: / | Insulin prom inh: -30.2 | Insulin prom inh cell count: 126.4 | HSV augment: i | HSV augment primary fold: 1.01

SMILES: CCSc1nc(-c2ccc(OC)cc2)n(-c2nc3ccccc3s2)n1
  PKD1 inh: -2.4 | RGS16-Gao: 104.7 | GALR2 agonist: -1.2 | Insulin prom inh: -188.9 | Insulin prom inh cell count: 84.3 | HSV augment: i | HSV augment primary fold: 1.04

(more compounds)
smiles	PKD1 inh	RGS16-Gao	GALR2 agonist	Insulin prom inh	Insulin prom inh cell count	HSV augment	HSV augment primary fold
CCc1ccc(Nc2nnc(SCn3nnc4ccccc4c3=O)s2)cc1	-11.5	101.3	-2.0	-54.2	87.1	i	0.92
CC(O)c1cccc(NC(=O)Cc2cccc3ccccc23)c1 (stereo not drawn)	10.2	104.0	/	/	/	i	1.06
CCC(CC)C(=O)NCc1ccccc1OC	-19.3	99.2	-0.6	31.2	100.4	i	0.92
Cc1cc(C)c(NC(=O)COC(=O)C2CCC(=O)N2)c(C)c1 (stereo not drawn)	3.1	101.5	/	/	/	i	1.03
COC(=O)C1=C(C)N(C2CCCCC2)C(=O)/C1=C\c1cccs1	-4.3	101.7	/	-225.0	68.3	i	0.98
